VACV Venus inh: inhibitors of vaccinia virus (Venus reporter); Potency, µM (doses to about 36.5 µM), for the others: top-dose activity change, negative = inhibition, usual class: inhibitors; Vaccinia virus Venus reporter expression, fluorescence; 330,000 compounds, 0.46% hits; active means well fitted inhibition curve with a large enough effect; inconclusive means small, poorly fitted or top-dose-only effect; inactive means no such curve, though single readings can be large or run the other way; tested in A549 cells; also: nearly all actives have a fitted effect of over 30% in size; inactives centre near -10
Vaccinia mCherry: inhibitors of vaccinia virus infection (mCherry reporter signal). Vaccinia virus mCherry reporter infection, fluorescence; about a quarter of the inactives have no number. Potency, µM (doses to about 36.5 µM), for inactives: top-dose activity change, negative = inhibition, hits mostly inhibitors. 310,000 compounds, 0.63% hits; active = well fitted inhibition curve with a large enough effect; inconclusive = small, poorly fitted or top-dose-only effect; inactive = no such curve, though single readings can be large or run the other way; tested in A549 cells; also: nearly all actives have a fitted effect of over 35% in size; inactives centre near -10
* marks the source's active call; other numbers are inactive results; i = inactive; ? = inconclusive; · = no result given; [ ] = remark or other dose. % is scaled to controls: 0 for no effect and ±100 for the full control effect; potency is read from the fitted curve at half-maximal effect.

SMILES | VACV Venus inh | Vaccinia mCherry
COC(=O)CCC(=O)OC1(C)C(=O)C=C2C=C(C3CC3)N(c3ccccc3)C=C2C1=O (configuration not stated) | 0% | -13%
O=C(Nc1cc(Cl)cc(Cl)c1)c1ccc(Cn2c(=O)[nH]c3ccsc3c2=O)cc1 | ? | ?
COc1ccc(CNc2ncnc3c2[nH]c2ccccc23)cc1 | -21%[7.34 µM] | -4%[7.34 µM]
Cc1onc(-c2c(F)cccc2Cl)c1C(=O)Nc1ccccc1N1CCOCC1 | -2% | -15%
CCOc1ccc(N2C(=O)N(Cc3ccc(C)cc3C)c3ccccc3S2(=O)=O)cc1 | -15% | -22%
Cc1ccc(CNC(=O)c2sc3nc(-c4ccc(F)cc4)ccc3c2N)cc1 | -20% | -25%
CC1CCCN(C(=O)COC(=O)c2cc([N+](=O)[O-])ccc2N2CCOCC2)C1 (configuration not stated) | -13% | i
COc1ccc(/C=C/C(=O)Oc2cc(C)[nH]c(=O)c2[N+](=O)[O-])cc1OC | -9% | -11%
O=C(NCCc1ccccc1)c1ccc2c(c1)OCCO2 | -8% | i
CCOC(=O)C1(C)CCN1C(=O)/C=C/c1ccccc1 (configuration not stated) | 7% | 4%
CCCC(=O)OC1=CN(Cc2ccccc2)S(=O)(=O)c2ccccc21 | ? | ?
O=S(=O)(NCC1(N2CCOCC2)CCCCC1)c1ccc(F)cc1 | -5% | -10%
CCCCNC(=O)COC(=O)c1cc(C)oc1C | -9% | i
CC1CCCCN1C(=O)CSc1nnc(-c2cccnc2)o1 (configuration not stated) | -9% | i
C=CCOc1c(Br)cc(CNn2c(C)n[nH]c2=S)cc1OCC | -7% | -11%
COc1cccc(OCC(=O)Nc2ccccc2C(=O)Nc2ccc(C(=O)O)cc2)c1 | -9% | i
O=C(O)c1cccc(Cn2c(Cl)c(/C=N/NC(=O)c3cccc(O)c3)sc2=O)c1 | 2% | 6%
COCn1c(COc2ccc3ccccc3c2)nc2ccccc21 | -16% | ·
CCC/C=C1/CCCOC(C(=O)NCc2ccccc2)(C(F)(F)F)C1 (configuration not stated) | -3% | -3%
Cc1cccc(-c2nc(CS(=O)CC(=O)NC3CCCC3)c(C)o2)c1 (configuration not stated) | -10% | -5%
Cc1cc(NC(=O)c2cccs2)cc(-c2nc3ncccc3o2)c1O | -14% | -18%
CCOC(=O)c1ccc(NC(=O)c2cccc3c(=O)c4c([nH]c23)CCCC4)cc1 | -6% | 3%
O=C(CN(Cc1ccccc1F)C(=O)Cn1nnc(-c2cccs2)n1)NCC1CCCO1 (configuration not stated) | -14% | i
COc1cccc(C(=O)Nc2cccc(SC)c2)c1 | -8% | ·
CCCCc1c(C)[nH]c(C(=O)OCC)c1C | -13% | -6%
COC(=O)c1ccc(NC(=O)CSc2nnc(-c3cccnc3)o2)cc1 | -9% | -10%
Cc1ccc(S(=O)(=O)NNC(=O)C2Cc3c(ccc4ccccc34)O2)cc1 (configuration not stated) | -28% | -29%
O=C(Nc1ccccn1)c1ccc2ccccc2n1 | -9% | -15%
Cc1ccc(-c2nnn(CC(=O)Nc3ccccc3-c3ccccc3)n2)c(-n2cnnn2)c1 | ? | ·
O=C(Cn1cnc2c(cnn2-c2ccccc2)c1=O)NCCc1ccccc1 | -19% | -21%
N#Cc1cc(C(=O)c2ccccc2OCC(=O)Nc2ccccc2)cn(C2CCCCC2)c1=O | -8% | i
COc1ccc(OCCn2cc(C(=O)C3CCCCC3)c3ccccc32)cc1 | -13% | -2%
O=C(COc1ccc([N+](=O)[O-])cc1)NN=C1CCCC1 | -11% | i
C=CCNC(=O)c1cc2c(=O)n3cccc(C)c3nc2s1 | -18% | -16%
CC(=O)c1c(C)nn(CC(O)Cn2c3c(c4cc(C)ccc42)CCCC3=O)c1C (configuration not stated) | 1% | -7%
CC1CCCCN1CC(=O)NC(=O)NCc1ccccc1 (configuration not stated) | -15% | -17%
COc1ccc(CCNC(=O)CN2C(=O)NC(C)(c3ccc([N+](=O)[O-])cc3)C2=O)cc1 (configuration not stated) | -11% | -8%
CCC(=O)OC1CCC2C3CCC4CC(=O)C=CC4(C)C3CCC12C (configuration not stated) | -6% | i
Cc1ccc(C(=O)OCC(=O)N(CC(C)C)c2c(N)n(Cc3ccccc3)c(=O)[nH]c2=O)o1 | -16% | 0%
COc1ccc(C2(O)CCN(C(=O)Cc3cccnc3)CC2)cc1 | -8% | -10%
Cc1ccc(NC2=C(Cl)C(=O)OC2OC(=O)c2ccccc2)c(C)c1 (configuration not stated) | -11% | -20%
O=C(CN(c1ccccc1)S(=O)(=O)c1ccccc1)Nc1ccccc1C(=O)NCc1ccco1 | -12% | -20%
Cc1ccc(F)cc1NC(=O)c1ccc(Cn2nc(N3CCN(c4ccccc4)CC3)ccc2=O)o1 | ? | ?
N#Cc1cc(C(=O)c2ccccc2O)cn(-c2ccc(Cl)cc2)c1=O | -13% | -1%
CCc1ccccc1N(C)C(=O)Cn1cnc2sc(C)c(S(=O)(=O)N3CCC(C)CC3)c2c1=O | -13% | -11%
CCCc1nc2c(=O)n(C)c(=O)[nH]c2n1C | -3% | -9%
COc1cc(/C=C2/SC(=S)N(CCC(=O)Nc3cccnc3)C2=O)cc(OC)c1OC | -15% | ?
Cc1ccc(C(=O)C(C)N2C(=O)NC(C)(c3ccccc3)C2=O)cc1 (configuration not stated) | -11% | -16%
Cc1cc(C)c2c(N=NN3CCCCC3)[nH]nc2n1 | -13% | i
NS(=O)(=O)c1ccc(CCNC(=O)c2ccc(Cl)cc2[N+](=O)[O-])cc1 | 3% | ?
CC1=CC(C)(C)Nc2ccc(OC(=O)C(Cc3ccccc3)N3C(=O)C4CCCCC4C3=O)cc21 (configuration not stated) | -8% | -9%
CC1CN(C(=S)SCC(=O)c2ccccc2)CC(C)O1 (configuration not stated) | -15% | -10%
Cc1nc(SCC(=O)N2CCCc3ccccc32)c2oc3ccccc3c2n1 | -4% | -19%
O=C(NCCN1CCOCC1)/C(=C\c1ccccc1Cl)NC(=O)c1ccccc1 | -11% | -1%
O=C1/C(=C\c2cc3c(cc2Br)OCO3)N2CCC1CC2 | -14% | -22%
O=C(C[C@H]1C/C=C\CCCCC(=O)OC[C@H]2CCCN2C1=O)N[C@H](CO)Cc1ccccc1 | 1% | -11%
Cc1ccc(N(CC(=O)N=Nc2c(O)[nH]c3ccccc23)S(C)(=O)=O)c(C)c1 | -6% | -13%
Cc1ccc2nc3n(c2c1)CCCN3 | -24% | i
Cc1cc(C)cc(OCC(O)CN2CCN(C(=O)c3ccco3)CC2)c1 (configuration not stated) | -14% | -13%
COc1ccc(NC(=O)CN(C)C(=O)c2cccc(NS(=O)(=O)c3ccc(Br)cc3)c2)cc1 | -15% | ?

Part of the list above in order of length of the SMILES, ascending:
SMILES | VACV Venus inh | Vaccinia mCherry
Cc1ccc2nc3n(c2c1)CCCN3 | -24% | i
CCCc1nc2c(=O)n(C)c(=O)[nH]c2n1C | -3% | -9%
Cc1cc(C)c2c(N=NN3CCCCC3)[nH]nc2n1 | -13% | i
CC1CN(C(=S)SCC(=O)c2ccccc2)CC(C)O1 (configuration not stated) | -15% | -10%
O=C1/C(=C\c2cc3c(cc2Br)OCO3)N2CCC1CC2 | -14% | -22%
Cc1nc(SCC(=O)N2CCCc3ccccc32)c2oc3ccccc3c2n1 | -4% | -19%
Cc1ccc(C(=O)C(C)N2C(=O)NC(C)(c3ccccc3)C2=O)cc1 (configuration not stated) | -11% | -16%
O=C(NCCN1CCOCC1)/C(=C\c1ccccc1Cl)NC(=O)c1ccccc1 | -11% | -1%
NS(=O)(=O)c1ccc(CCNC(=O)c2ccc(Cl)cc2[N+](=O)[O-])cc1 | 3% | ?
COc1cc(/C=C2/SC(=S)N(CCC(=O)Nc3cccnc3)C2=O)cc(OC)c1OC | -15% | ?
Cc1ccc(N(CC(=O)N=Nc2c(O)[nH]c3ccccc23)S(C)(=O)=O)c(C)c1 | -6% | -13%
COc1ccc(NC(=O)CN(C)C(=O)c2cccc(NS(=O)(=O)c3ccc(Br)cc3)c2)cc1 | -15% | ?
O=C(C[C@H]1C/C=C\CCCCC(=O)OC[C@H]2CCCN2C1=O)N[C@H](CO)Cc1ccccc1 | 1% | -11%

(next part)
SMILES | VACV Venus inh | Vaccinia mCherry
c1ccc2c(c1)Cn1nc(Cc3nc4c(s3)CCCC4)nc1-2 | -12% | ·
O=C1NC2C3CC(c4ccccc43)C12 (configuration not stated) | -11% | -3%
Cc1ccc(S(=O)(=O)N(C(=O)c2ccncc2)c2ccc(OC(=O)c3ccncc3)cc2)c(C)c1 | 4% | -16%
COc1ccccc1CNC(=O)Cn1c(=O)ccc2cc(S(=O)(=O)N3CCC(C)CC3)ccc21 | 3% | -9%
CCc1nn(CC(=O)NC(C)C)c(=O)c2cc3cc(F)ccc3n12 | 1% | -3%
CCc1ccc(NC(=O)CN2CCN(c3ccc(OC)cc3)CC2)cc1 | -22% | -21%
O=C(CC(c1ccccc1)c1ccccc1)Nc1ccc(Cl)cn1 | ? | ·
O=C(c1ccc(-c2ccccc2)cc1)C1CCCN(C(=O)c2ccncc2)C1 (configuration not stated) | -18% | i
CCc1cc(C(=O)N2CCCC(C(=O)c3cccc(OC(C)C)c3)C2)n(C)n1 (configuration not stated) | -7% | -18%
Cc1ccc(-c2nnn(CC(=O)N(Cc3ccccc3F)C(C(=O)NC3CCCC3)c3ccncc3)n2)o1 (configuration not stated) | 1% | -21%
c1ccc2[nH]c3cc4ncnc4cc3nc2c1 | ? | ?
Cc1ccc(/C=C/c2onc(C)c2S(=O)(=O)N2CCC(C(=O)NCc3ccco3)CC2)cc1 | -9% | -8%
O=C(NCc1ccccc1)C1=C[C@@H](C2CC2)C[C@@H](OCCCCO)O1 | 5% | 4%
COc1cccc(C2=CC(c3ccccc3)n3nnnc3N2)c1 (configuration not stated) | -19% | ?
O=C(NCCc1ccccn1)C(F)(F)C(F)(F)C(F)(F)C(F)(F)C(F)(F)C(F)F | -13% | i
COC(=O)CC1C(=O)NCCN1C(=O)CSc1nc2ccccc2c(=O)n1CC(C)C (configuration not stated) | -15% | -15%
COc1ccccc1CNc1nc(-c2ccco2)nn1S(=O)(=O)c1ccc(Cl)cc1 | -14% | -6%
Cc1nn(-c2ccc(N3CCCC3)nn2)c(C)c1CCC(=O)N1CCN(c2ccccc2F)CC1 | -10% | -3%
CC(C)c1nnc(NC(=O)CCC(=O)NC2CCCCC2)s1 | -8% | -11%
Cc1cccc(CNC(=O)c2ccccc2NC(=O)C2=CSCCO2)c1 | 9%[7.34 µM] | 17%[7.34 µM]
O=S(=O)(c1cccs1)n1cnc2ccccc21 | -10% | ·
Cc1cccc(N2C(=O)/C(=C/N3CCN(C(=O)c4ccco4)CC3)C(=O)NC2=S)c1 | ? | ·
CCC1CN2CCc3cc(OC)c(OC)cc3C2CC1CC1c2cc(OC)c(OC)cc2CCN1C(=O)C(Cc1c[nH]c2ccccc12)NC(=O)OC(C)(C)C (configuration not stated) | -26% | -12%
Cn1c(=O)c2c(nc(SCCCC#N)n2Cc2ccccc2F)n(C)c1=O | 1% | -11%
COc1cc(NC(=O)c2cc(-c3ccco3)on2)cc(OC)c1OC | -6% | -12%
CCN1CCN(c2ccc(S(=O)(=O)N3CCOCC3)cc2NC(=O)c2ccccc2OC(F)F)CC1 | -12% | ?
Cn1nccc1C(=O)N1CCCC(C(=O)c2ccc(C(F)(F)F)cc2)C1 (configuration not stated) | -4% | -14%
C=CS(=O)(=O)c1c2cc(OC)ccc2nc2ccc(OC)cc12 | ? | ?
CCOc1ccc(N(C)S(=O)(=O)c2cc(-c3cc(C)no3)ccc2CC)cc1 | -13% | -16%
CCOC(=O)[C@@H]1[C@H]2COc3ccc(Br)cc3[C@@H]2N2C(=O)N(c3cccc(C)c3)C(=O)[C@]12C | -24% | -5%
CCN(CC)c1ccc(S(=O)(=O)N2CCOCC2)cc1NC(=O)COC(=O)c1cccnc1SC | -1% | i
CN1CCc2c(sc(NC(=O)c3cc(Cl)sc3Cl)c2C(N)=O)C1 | -18% | ?
COC(=O)C(C)C1Sc2ccccc2NC1=O (configuration not stated) | -8% | i
CC(C)(C)c1ccc(NC(=O)Cn2cnc3cc([N+](=O)[O-])ccc3c2=O)cc1 | -12% | -9%
COc1cc2c(cc1OC)CN(C(=O)Cc1ccc(OC)c(S(=O)(=O)N3CCOCC3)c1)CC2 | -12% | i
COc1ccc(NC(=O)N/C=C/c2ccco2)cc1 | -4% | i
COc1cccc(-c2nn3c(=O)cc(CN4CCN(C(=O)COc5ccccc5C)CC4)nc3s2)c1 | -22% | ?
CCN(CC)S(=O)(=O)c1cccc(NC(=O)CSc2nc3ccccc3[nH]2)c1 | -14% | i
COc1ccc(NC(=O)CC2C(=O)N(c3cccc(OC)c3)C(=O)N2Cc2ccc3c(c2)OCO3)cc1 (configuration not stated) | 4% | 9%
CC(=O)N1CCN(CCN=Cc2c(O)n(-c3ccc(C)cc3)c(=S)[nH]c2=O)CC1 | -17% | -3%
CNC(=O)CS(=O)(=O)CC(=O)Nc1cc(OC(C)C)c(Cl)cc1Cl | -11% | i
CC(C)(C)OC(=O)N1CCC(c2c(C(=O)N3CCN(C4CCCCC4)CC3)cnn2-c2ccc(F)cc2)CC1 | -6% | -14%
CCCn1cc(S(=O)(=O)c2ccccc2)c(=O)c2cc(F)c(N3CCCCCC3)cc21 | ? | -28%

Bioassay records from PubChem.
